VACV Venus inh: qHTS for Stage-Specific Inhibitors of Vaccinia Orthopoxvirus: Venus Reporter Primary qHTS. AID 720580, 2013. 330,000 compounds, 0.46% hits. Potency, µM (titrated, usually from 36.5 µM), inactives show at the top dose activity change, negative = inhibition, actives largely listed as inhibitors. Vaccinia virus Venus reporter expression, fluorescence; active means well fitted inhibition curve with a large enough effect; inconclusive means small, poorly fitted or top-dose-only effect; inactive means no such curve, though single readings can be large or run the other way; tested in A549 cells; note: nearly all actives have a fitted effect of over 30% in size; inactives centre near -10
Vaccinia mCherry: qHTS for Stage-Specific Inhibitors of Vaccinia Orthopoxvirus: mCherry Reporter Primary qHTS; Vaccinia virus mCherry reporter infection, fluorescence; about a quarter of the inactives have no number; Potency, µM (highest dose often 36.5 µM), for inactives: top-dose activity change, negative = inhibition, hits mostly inhibitors; 310,000 compounds, 0.63% hits; AID 720579, 2013; active = well fitted inhibition curve with a large enough effect; inconclusive = small, poorly fitted or top-dose-only effect; inactive = no such curve, though single readings can be large or run the other way; tested in A549 cells; note: nearly all actives have a fitted effect of over 35% in size; inactives centre near -10
Numbers without * were called inactive; i = inactive; ? = inconclusive; . = not tested or not shown; & = joins results of further samples; [ ] = remark or other dose. % is set by controls: 0 for no effect and ±100 for the full control effect; potency is the fitted concentration of half-maximal effect.

Below each SMILES – VACV Venus inh, Vaccinia mCherry
> CCN1CCc2c(sc(N)c2C#N)C1
→ 7.6%, -1.1%
> Cc1cc(C(=O)CN2C(=O)NC3(CCC(C)CC3)C2=O)c(C)n1C (configuration not stated)
→ -2.5%, i
> CCOC(=O)/C(=N\Nc1ncnc2ccccc12)c1ccc(C)cc1
→ 2.1%, -11.7%
> CCOc1cccc(N(C(=O)c2ccco2)C(C(=O)NC2CCCC2)c2cccnc2)c1 (configuration not stated)
→ -4.6%, -21.0%
> Cc1ccc(CS(=O)(=O)CCC(=O)NCCCN2CCCC2=O)cc1
→ -24.8%, -7.1%[1.46 µM]
> CCN(CC(=O)Nc1ccc(NC(C)=O)cc1)C(=O)Cc1c(Cl)cccc1Cl
→ -9.8%, -0.7%
> CCOc1ccc(-c2nn3c(-c4cc(-c5ccccc5)n[nH]4)nnc3s2)cc1
→ -26.3%&-15.8%, -22.9%&-11.2%
> CCOC(=O)CSC1=C(C#N)C(c2ccc(C)s2)CC(=O)N1 (configuration not stated)
→ ?, ?
> Cc1ccc(NC(=O)c2cc(=O)c3ccccc3o2)c(C)c1
→ -16.4%, -15.6%
> Cc1cccc(Nc2c([N+](=O)[O-])c(=O)n(C)c3ccccc23)c1
→ -5.5%, i
> C=CCN(CC=C)C(=S)NC(=O)c1ccc([N+](=O)[O-])cc1
→ -18.3%, -4.5%
> CCOCC(=O)N1CCN(c2ccc(F)cc2)CC1
→ -28.0%, .
> Clc1ccc(OCc2nnc(-c3ccccc3Br)o2)c(Cl)c1
→ -15.9%, -11.5%
> Nc1ccn([C@@H]2O[C@H](CNC(=O)[C@H]3CCC(=O)N3)[C@@H](O)[C@H]2O)c(=O)n1
→ 1.8%, i
> CC(O)c1cccc(-c2ccc(CN3C[C@]4(CO)O[C@@H](CO)C[C@@H]4S3(=O)=O)cc2)c1 (some centres not stated)
→ -6.5%, i
> O=C(O)c1cccc(-c2ccc(/C=C3/SC(=Nc4ccccc4)N(Cc4cccnc4)C3=O)o2)c1
→ -21.9%, -9.1%
> CC(=O)OCCn1c([N+](=O)[O-])cnc1C=[N+]([O-])C1CCCCC1
→ -1.8%, -11.6%
> COc1ccc(N(CC(=O)NCCc2ccccc2)S(=O)(=O)c2ccc(OC)c(OC)c2)cc1
→ 0.8%, -3.4%
> COC(=O)c1ccccc1NC(=O)c1sc(Cl)nc1C
→ -7.9%, i
> CC(=O)c1ccc(Nc2nc(C(N)C(C)C)cs2)cc1 (configuration not stated)
→ -23.9%, ?
> COc1cc(C(=S)N2CCOCC2)cc(OC)c1OC(=O)c1cc([N+](=O)[O-])cc([N+](=O)[O-])c1
→ -11.3%, -16.8%
> Nc1ccc2nc(-c3cccc(-c4nc5ccc(N)cc5[nH]4)c3)[nH]c2c1
→ -11.5%, i
> Cc1csc(SCC(=O)Nc2nncs2)n1
→ -8.2%, i
> O=C(NC1CCCCC1)C(c1cccnc1)N(C(=O)c1ccc(Cl)nc1)C1CCCCC1 (configuration not stated)
→ -8.3%, -2.2%
> CN(Cc1ccccc1)S(=O)(=O)c1ccc(OCC(=O)NCc2ccccn2)cc1
→ -7.0%, i
> O=c1[nH]n2c(=O)c3c([nH]c2c1N=Nc1cccc(Cl)c1)CCC3
→ -11.2%, -9.6%
> O=C(CCN1C(=O)C2CC=C(Cl)CC2C1=O)Nc1ccccc1O (configuration not stated)
→ -14.3%, i
> Cc1nc2c3cccnc3nn2c(C)c1CCC(=O)NCc1ccccc1Cl
→ -9.2%, -12.7%
> CCN(c1ccccc1)S(=O)(=O)c1ccc(OC)c(NC(=O)CNCC(C)O)c1 (configuration not stated)
→ -15.9%, -14.4%
> COc1ccc(C(=O)NC2CCN(CC(=O)NCc3ccccc3F)CC2)cc1
→ -7.0%, 5.1%
> COc1ccc(C2c3c(oc4ccccc4c3=O)C(=O)N2c2ccccn2)cc1OC (configuration not stated)
→ -5.1%, -9.1%
> Cc1noc(C)c1C(=O)N1CCN(Cc2ccc3c(c2)OCO3)CC1
→ -8.1%, i
> O=C1CCCc2cc(S(=O)(=O)N3CCCC(C(=O)NCc4ccccc4Cl)C3)ccc2N1 (configuration not stated)
→ -6.8%, -12.6%
> CC1CCC2(CC1)NC(=O)N(Cc1nnc(-c3cccs3)o1)C2=O (configuration not stated)
→ 0.5%, -4.4%
> CC1Nc2nc(NC(=O)C(C)(C)C)[nH]c(=O)c2N(C)C1C (configuration not stated)
→ -8.4%, -11.5%
> Cc1sc2c(c1C)c(=O)n(CCc1ccccc1)c(=O)n2Cc1ccc(F)cc1
→ 3.6%, -3.8%
> Cc1ccc(NC(=O)Cn2c(=O)oc3ccccc32)cc1
→ 3.9%, 9.9%
> CC1CCCCN1Cc1ccc(-c2nn[nH]n2)cc1 (configuration not stated)
→ -15.7%, .
> CC(C)CN1C(=O)c2ccc(C(=O)Nc3ccc(O)cc3C(=O)O)cc2C1=O
→ -7.5%, -12.9%
> Cc1ccc(S(=O)(=O)CCC(=O)OCC(=O)c2ccc(C)c(C)c2)cc1
→ -18.6%, -17.0%
> CC(=O)N1c2ccc(S(=O)(=O)N3CCC(C(=O)N4CCN(c5ccccc5F)CC4)CC3)cc2CC1C (configuration not stated)
→ -13.8%, -10.7%
> COc1ccc(N=C2NN=C(c3ccc4c(c3)OCCO4)CS2)cc1
→ -9.8%, .
> Cc1ccc(S(=O)(=O)NCCC(=O)Nc2cccc(S(N)(=O)=O)c2)cc1C
→ -1.6%, i
> COc1ccc(/C=C2\SC(=S)N(CCCC(=O)N3CCOCC3)C2=O)cc1
→ ?, ?
> Cc1nc2ccc(Br)cc2c(-c2ccccc2)c1C(=O)O
→ -9.1%, -14.9%
> COc1cccc(/C=C/C(=O)NNC(=O)c2cc(C)oc2C)c1
→ -12.5%, -3.2%
> COc1ccc(C(=O)NNC(=O)C2CCN(S(=O)(=O)c3ccc(C)cc3)CC2)cc1
→ -13.4%, i
> CCOc1ccc(Cl)cc1S(=O)(=O)N1CCC(C(=O)NCc2cccnc2)CC1
→ 0.0%, -17.3%
> CCCOc1ccccc1NS(=O)(=O)c1ccc2[nH]c(=O)[nH]c2c1
→ -24.2%, -29.8%
> CCN1C(=O)CC(SC2CC(=O)N(CC)C2=O)C1=O (configuration not stated)
→ -8.7%, -18.2%
> O=C(NCc1ccc(Cl)cc1)c1cnc2sc(N3CCCCCC3)nn2c1=O
→ -7.9%, -7.6%
> CN(C)CCN(Cc1ccccc1)C(=O)[C@H](Cc1ccccc1)N1C(=O)c2ccccc2C1=O
→ -1.5%, -20.8%
> CC1CCN(CC(=O)Nc2nn(-c3ccccc3)nc2C(N)=O)CC1
→ -1.3%, i
> CCc1ccc(CNC(=O)c2cnc3sc(N4CCCCC4)nn3c2=O)cc1
→ -2.3%, -3.8%
> CC1=NN(c2nc(-c3ccc(C)cc3)cs2)C(=O)C1N=Nc1cccc(O)c1 (configuration not stated)
→ 7.6%, -4.5%
> CN1CCN(c2ccccc2NC(=O)c2ccc(-c3ccccc3)cc2)CC1
→ -22.2%, .
> O=C(COC(=O)c1cc(S(=O)(=O)N2CCOCC2)ccc1O)NCCc1ccccc1
→ -7.0%, -9.8%
> O=S1OCCN1c1ccccc1 (configuration not stated)
→ 1.7%, -1.4%
> CCn1c(COC(=O)CNC(=O)c2ccccc2)nc2cc(S(=O)(=O)N(C)C)ccc21
→ -5.3%, -3.8%
> CCC(C)N1C(=S)SC(C)(C)C1N(O)C(=O)NC1CCCCC1 (configuration not stated)
→ -2.5%, i

The list continues:
Below each SMILES – VACV Venus inh, Vaccinia mCherry
> CCc1c(C)sc(NC(=O)c2cc(-c3ccc(OC)c(OC)c3)on2)c1C#N
→ -11.4%&-3.1%, -16.8%&-3.1%
> CCOC(=O)C1=CN(Cc2cccc(F)c2)S(=O)(=O)NC1CCc1ccccc1 (configuration not stated)
→ -25.4%, i
> Cn1c(C(=O)N2CCCC(C(=O)NCc3ccc4c(c3)OCO4)C2)cc2sccc21 (configuration not stated)
→ -23.0%, -1.1%
> CCOC(=O)C1CCN(c2cc(C)nc3c(-c4ccccc4OC)c(C)nn23)CC1
→ -10.0%, -0.4%
> COc1cc([N+](=O)[O-])ccc1NC(=O)Oc1ccc(NC(C)=O)cc1
→ -7.1%, i
> COc1ccc(C2Nc3ccccc3C(=O)N2Cc2ccccc2)cc1Cn1nnc2ccccc21 (configuration not stated)
→ -14.9%, -24.8%
> O=C(CSc1ccc(-c2cccc([N+](=O)[O-])c2)nn1)N1CCCCCC1
→ -11.2%, i
> Cc1ccc(N2C(=O)NC(NC(=O)C(C)(C)C)(C(F)(F)F)C2=O)cc1 (configuration not stated)
→ -8.8%, -9.0%
> Cc1noc(C)c1COC(=O)C(c1ccccc1)c1ccccc1
→ -4.0%, -9.5%
> COc1ccc(-c2nnc(SCc3ncc(-c4ccccc4)o3)o2)cc1
→ -16.6%, -23.6%
> CCc1nc2ccc(C(=O)NCCCN(C)C)cn2c1N(C)Cc1ccc(OC)cc1
→ -17.6%, -23.0%
> CCN(CC)S(=O)(=O)c1ccc2[nH]c(=O)cc(C(=O)Nc3ccccc3N3CCCC3)c2c1
→ -16.8%, i
> CCN1C(=O)[C@H]2[C@@H](c3ccc(-c4ccccc4)cc3)N[C@@](CC(C)C)(C(=O)OC)[C@H]2C1=O
→ -11.7%, -2.1%
> CN1C(=O)C(O)(c2sc(N)nc2-c2ccccc2)c2ccccc21 (configuration not stated)
→ -8.4%, i
> Nc1nnc2cc(Cl)ccc2n1
→ -12.3%, ?
> COc1cccc(C(C)(O)c2nc(-c3ccc4c(c3)OCO4)cs2)c1 (configuration not stated)
→ -9.9%, -11.1%
> COC(=O)[C@@]12C[C@@H](CC(=O)N3CCC(c4ccccc4)CC3)C(=O)N(CCc3ccc(OC)c(OC)c3)C1=CCC(C)(C)C2
→ ?, ?
> Cc1cc(CSc2ccc(Cl)cc2)ccc1N
→ ?, ?
> COc1cc(NC(=O)c2cnn(-c3cccc(F)c3)c2C2CCNCC2)cc(OC)c1OC
→ 1.4%, 4.5%
> COc1ccc(N2CC3=C(C2=O)C(c2ccc(O)c(OC)c2)NC(=O)N3C)cc1 (configuration not stated)
→ 13.8%, 3.5%

Given as labelled records: part of the list above
CCc1nc2ccc(C(=O)NCCCN(C)C)cn2c1N(C)Cc1ccc(OC)cc1
  VACV Venus inh: -17.6%
  Vaccinia mCherry: -23.0%
O=C(CSc1ccc(-c2cccc([N+](=O)[O-])c2)nn1)N1CCCCCC1
  VACV Venus inh: -11.2%
  Vaccinia mCherry: i

Continuation.
Below each SMILES – VACV Venus inh, Vaccinia mCherry
> CS(=O)(=O)N1CCN(c2ccccc2NC(=O)c2ccco2)CC1
→ -1.8%, -8.8%
> COC(=O)c1ccc(CNS(=O)(=O)c2ccc3ccccc3c2)cc1
→ -3.7%, -12.4%
> CC(=O)c1c(N2CCOCC2)nc(=S)n(-c2ccccc2)c1C
→ -6.4%, -13.8%
> NC(=O)NCCN1CCN(c2ncc(C(F)(F)F)cc2Cl)CC1
→ -3.4%, i
> COC(=O)CC1c2cc(OC)c(OC)cc2CC(=O)c2cc(OC)c(OC)cc21 (configuration not stated)
→ 6.6%, -13.8%
> Cc1ccc(C)c(NC(=O)c2nn(C)c3c2CS(=O)(=O)c2ccccc2-3)c1
→ -7.9%, 9.1%
> CN1CCN(C(=O)CCc2ncc(C(F)(F)F)cc2Cl)CC1
→ -11.3%, -1.6%
> CN1C(=S)N(c2ccccc2)C(=O)/C1=C/c1cccs1
→ -10.8%, -17.6%
> CC(=O)Nc1ccc(Oc2cc(NC(C)=O)cc([N+](=O)[O-])c2)cc1
→ -13.0%, -2.5%
> CC(c1cccs1)N(Cc1ccco1)C(=S)Nc1ccccc1Cl (configuration not stated)
→ -11.4%, -19.3%
> CCOC(=O)N/N=C(/C)c1cccc(-n2cnnn2)c1
→ -10.1%, 1.3%
> CCc1nnc(NC(=O)CSc2nnc(-c3ccc(O)cc3)n2C)s1
→ -14.9%, -5.0%
> CC1CCc2onc(C(=O)N3CCN(c4cccc(Cl)c4)CC3)c2C1 (configuration not stated)
→ -11.4%, i
> O=C(Cn1c(=O)nc(-c2ccccc2)c2cc(Cl)ccc21)NCCc1ccccc1
→ -11.6%, -13.6%
> COc1ccc(OC)c(S(=O)(=O)N2CCCC(C(=O)NCCN3CCOCC3)C2)c1 (configuration not stated)
→ -5.6%, -16.0%
> Cc1ccc(OCC(=O)Nc2ccc(N3CCN(C(=O)c4ccc(C)cc4)CC3)cc2)cc1
→ -11.7%, -8.9%
> CCn1nc(C)c(C2C(C#N)=C(N)OC3=C2C(=O)CC(C)(C)C3)c1C (configuration not stated)
→ -8.9%, -15.2%
> O=C(c1ccc(Cl)cc1)N(Cc1ccccc1F)N1C(=O)CCCC1=O
→ -3.7%, i
> C[C@@H]1CN([C@@H](C)CO)C(=O)CCCn2nncc2CO[C@@H]1CN(C)C(=O)CCC(F)(F)F
→ -12.0%, -7.6%
> CCSc1nc(=O)c2c(n1C)NC(=O)CC2c1ccc(O)cc1OC (configuration not stated)
→ -2.1%, -5.2%
> CN(CC(=O)Nc1ccccc1Cl)CC(=O)N(C)c1c(N)n(Cc2ccccc2)c(=O)[nH]c1=O
→ -10.2%, -24.9%
> C=CCNC(=O)/C(=C\c1ccco1)NC(=O)c1ccco1
→ -9.2%, i
> CCC(C)[C@H](NC(=O)[C@H](Cc1ccccc1)n1c(=O)[nH]c2ccccc2c1=O)C(=O)N1CCC[C@@H]1C(=O)O (some centres not stated)
→ 0.6%, 1.0%
> Cc1ccc(Nc2cc(C)nc3nnnn23)cc1
→ 6.5%, -13.9%
> Cc1cc(Cl)ccc1NS(=O)(=O)c1c(C(=O)N2CCC(C)CC2)c(C)n(C)c1C
→ -18.7%, -17.4%
